eIF4H inh – inhibitors of RNA binding by human eIF4H; Q15056; eIF4H fluorescence polarization binding assay; inhibition, % at 35 µM; actives 0.94% (n = 290,000);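 active means 50% or more with normal probe brightness, or confirmed in later tests; about a fifth of its hits are not listed in these tables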;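 further: calls also rest on retests at 20 µM and on dose response follow-up; 0% = protein and probe with vehicle and 100% = probe without protein; strong numbers were not always called active; many hits fall short of the cut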
HIV Env fusion – blocks HIV Env-driven cell-cell fusion; inhibition, % at 12.3 µM; HeLa-JRFL Env/CEM21 cell fusion, luciferase; actives 1.1% (n = 360,000); AID 651610;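 active means mean replicate inhibition score of at least 50 and every replicate individually at or above 50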;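 further: 0% = plate neutral controls and 100% = maraviroc near 300 nM; one replicate is shown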
CSC inhib – blocks cancer stem cells; cancer stem cell-like cells viability, luminescence; inhibition, % at 7.5 µM; actives 1.1% (n = 300,000);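 active means mean at 75% or more and at least half the replicates too; tested in HMLE shEcad cells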;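 further: 0% = median of negative and 100% = median of positive control wells; the first replicate is given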
PABP polyA inh – blocks human PABP binding to poly(A) RNA. fluorescence polarization. inhibition, % at 35 µM. actives 1% (n = 290,000);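 active means 50% or more with normal probe brightness, or confirmed in later tests; about a fifth of its hits are not listed in these tables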;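 further: calls also rest on retests at 20 µM and on dose response follow-up; controls were probe without protein and protein plus probe with vehicle; some compounds called inactive have numbers as strong as hits; many hits fall short of the cut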
MT1-MMP act inh – MT1-MMP (human) activation inhibition; HT1080 RFP-PRO-GFP cells, GFP/RFP ratio fluorescence, overnight; percent of plate control window, DMSO zero; GFP/RFP ratio change, % at 20 µM; P50281; actives 0.061% (n = 360,000);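 active means GFP/RFP ratio change of at least 30% with cell ATP level not reduced by more than half and red fluorescence within 50% of control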; further: strong numbers were not always called active
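Assay system: RFP-PRO-GFP reporter HT1080 cells; read-out basis: GFP/RFP fluorescence ratio; benchmarks: DMSO wells and RFP-L50D-GFP cells; doses: 20 µM single dose, 1% DMSO; schedule: overnight cell settling, then overnight compound exposure, 37 °C, 5% CO2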
Rce1 inh – yeast Ras-converting enzyme inhibition; calls only; Q03530; actives 0.27% (n = 290,000); yeast membranes, quenched prenylated peptide cleavage fluorescence;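 active means fall in fluorescence gain of 50% or more versus controls, with final raw signal at or below 3038400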;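 further: plate controls were neutral control wells for no effect and wells lacking membranes for full effect; tested at 10 µM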
Target sequence (Q03530 whole entry, looked up): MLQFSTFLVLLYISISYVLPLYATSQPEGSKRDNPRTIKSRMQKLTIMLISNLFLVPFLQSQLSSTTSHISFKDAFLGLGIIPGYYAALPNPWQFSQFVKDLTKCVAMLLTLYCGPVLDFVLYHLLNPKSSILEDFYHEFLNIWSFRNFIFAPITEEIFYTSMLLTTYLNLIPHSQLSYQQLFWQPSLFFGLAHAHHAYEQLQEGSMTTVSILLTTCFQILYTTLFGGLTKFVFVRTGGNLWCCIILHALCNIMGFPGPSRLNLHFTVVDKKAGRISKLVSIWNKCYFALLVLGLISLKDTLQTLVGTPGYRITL
UUG fidelity – alters start codon recognition fidelity in yeast; S. cerevisiae UUG-firefly luciferase reporter, luminescence/redox ratio; activity score, % at 18.7 µM; actives 0.13% (n = 350,000);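 active means replicate mean at a twofold rise or more, about +100% in these data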;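 further: firefly luciferase made from a UUG start codon reports start codon fidelity; reporter light over untreated wells divided by growth signal over untreated wells; some hits fall short of that in this replicate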
eIF4H inh retest – second read-out of eIF4H inh, no call of its own (marks repeat the call); inhibition, %; compound at 20 µM; confirmation average;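 mean of two retest wells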
PABP polyA inh retest – further read-out of PABP polyA inh, marked with its call; inhibition, %; compound at 20 µM; confirmation repeats;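 mean of two retest wells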
MT1-MMP act inh RFP – also measured in MT1-MMP act inh; calls as there; RFP signal change, %; measured here: RFP expression control read;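 0 = vehicle wells; hits needed this value within 50% of zero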
Numbers without * were called inactive.

What do the screens show for `COc1ccc2[nH]c3c(=O)n(Cc4ccc(C(=O)N5CCCCCC5)cc4)c(=S)[nH]c3c2c1`?
eIF4H inh: 14; HIV Env fusion: -1; CSC inhib: 35; PABP polyA inh: -1; MT1-MMP act inh: -2; Rce1 inh: inactive; MT1-MMP act inh RFP: -11

How did COC(=O)c1c(C(C)=O)cnc2ccc(Br)cc12 do in these assays?
eIF4H inh: -7; CSC inhib: -9; PABP polyA inh: -3; MT1-MMP act inh: -4; Rce1 inh: inactive; UUG fidelity: -10; MT1-MMP act inh RFP: 3

Results for COc1cc(CNc2ccc3[nH]c(=O)[nH]c3c2)ccc1OCc1cccc(C)c1 ?
eIF4H inh: 4; HIV Env fusion: -37; CSC inhib: 7; PABP polyA inh: 18; MT1-MMP act inh: 4; Rce1 inh: inactive; UUG fidelity: -19; MT1-MMP act inh RFP: -8

How did COc1ccc(N2CCN(c3oc(Cc4ccccc4)nc3C#N)CC2)cc1 do in these assays?
eIF4H inh: -17; HIV Env fusion: -112; CSC inhib: 30; PABP polyA inh: -3; MT1-MMP act inh: 6; Rce1 inh: inactive; UUG fidelity: -9; MT1-MMP act inh RFP: -1

How did COc1ccc(S(=O)(=O)N2CCOC2CNC(=O)C(=O)NCCN(C)C)cc1 (configuration not stated) do in these assays?
eIF4H inh: 18; HIV Env fusion: -2; CSC inhib: 3; PABP polyA inh: 14; MT1-MMP act inh: 3; Rce1 inh: inactive; UUG fidelity: 9; MT1-MMP act inh RFP: 5

Results for COc1ccc(CNC(=O)CCNC(=O)N2CCn3c2nc2ccccc23)cc1 ?
eIF4H inh: 20; HIV Env fusion: -2; CSC inhib: -12; PABP polyA inh: 50; MT1-MMP act inh: -1; Rce1 inh: inactive; UUG fidelity: -11; MT1-MMP act inh RFP: 5

What do the screens show for `CNC(=S)N(Cc1ccc(OC)cc1)Cc1cc2ccc(C)cc2[nH]c1=O`?
eIF4H inh: -9; HIV Env fusion: 5; CSC inhib: -8; PABP polyA inh: 3; MT1-MMP act inh: 3; Rce1 inh: inactive; MT1-MMP act inh RFP: 0

How did COc1cccc(-n2cc(CNCc3cn(C)nc3-c3ccccc3F)cn2)c1 do in these assays?
eIF4H inh: 9; HIV Env fusion: 10; CSC inhib: 2; PABP polyA inh: -14; MT1-MMP act inh: 3; Rce1 inh: inactive; UUG fidelity: -9; MT1-MMP act inh RFP: 0

What do the screens show for `CCOC(=O)c1sc2c(c1C)c(=O)n(Cc1ccccc1)c(=O)n2CCN(C)C`?
eIF4H inh: -8; HIV Env fusion: 12; CSC inhib: -7; PABP polyA inh: -16; MT1-MMP act inh: 7; Rce1 inh: inactive; UUG fidelity: 0; MT1-MMP act inh RFP: -5

Results for COc1ccc(C(O)P(=O)(OCCC(C)C)c2ccc(N(C)C)cc2)cc1OC (configuration not stated) ?
eIF4H inh: -12; HIV Env fusion: 12; CSC inhib: -18; PABP polyA inh: -7; MT1-MMP act inh: 0; Rce1 inh: inactive; MT1-MMP act inh RFP: 2

Results for O=C(NC1CCCCC1)c1sc(=S)n2c1[nH]c(=O)c1ccccc12 ?
eIF4H inh: -3; HIV Env fusion: 6; CSC inhib: 55; PABP polyA inh: 11; MT1-MMP act inh: 2; Rce1 inh: inactive; UUG fidelity: -8; MT1-MMP act inh RFP: -11

Results for O=C(N/N=C/c1cc(Cl)ccc1O)c1cccnc1 ?
eIF4H inh: 19; HIV Env fusion: 16; CSC inhib: 31; PABP polyA inh: 3; MT1-MMP act inh: 3; Rce1 inh: inactive; UUG fidelity: -26; MT1-MMP act inh RFP: -10

What do the screens show for `O=C1NC(=O)C(=Cc2ccc(Cl)c(Cl)c2)S1`?
HIV Env fusion: -19; MT1-MMP act inh: -1; UUG fidelity: -14; MT1-MMP act inh RFP: -5

What do the screens show for `Cc1ccc(C)c(N(CC(=O)NCCC2=CCCCC2)S(C)(=O)=O)c1`?
eIF4H inh: -4; HIV Env fusion: 30; CSC inhib: -9; PABP polyA inh: -12; MT1-MMP act inh: 3; Rce1 inh: inactive; UUG fidelity: -5; MT1-MMP act inh RFP: 3

What do the screens show for `O=C(Nc1ccc(Cl)c(Cl)c1)OCCNC(=O)c1cccc(Cl)c1`?
eIF4H inh: 4; CSC inhib: 38; PABP polyA inh: 1; MT1-MMP act inh: 4; Rce1 inh: inactive; MT1-MMP act inh RFP: -5

Results for CCc1cc(OCCN2C(=O)NC(C)(C)C2=O)ccc1Cl ?
eIF4H inh: -1; HIV Env fusion: 27; CSC inhib: -9; PABP polyA inh: 0; MT1-MMP act inh: 0; Rce1 inh: inactive; UUG fidelity: 7; MT1-MMP act inh RFP: -3

How did NC(=O)C1=C[C@@H](c2ccc(Br)cc2)C[C@@H](OCc2ccc(CO)cc2)O1 do in these assays?
eIF4H inh: -7; HIV Env fusion: -9; CSC inhib: -17; PABP polyA inh: 17; MT1-MMP act inh: 1; Rce1 inh: inactive; UUG fidelity: 10; MT1-MMP act inh RFP: 0

Results for COCCCNC(=S)NNC(=O)c1ccccc1Br ?
eIF4H inh: -8; HIV Env fusion: -10; CSC inhib: -14; PABP polyA inh: -1; MT1-MMP act inh: -6; Rce1 inh: inactive; MT1-MMP act inh RFP: -2

Results for CCOc1ccccc1NC(=O)c1oc2ccccc2c1NC(=O)C1CC1 ?
eIF4H inh: 4; HIV Env fusion: 2; CSC inhib: -8; PABP polyA inh: -6; MT1-MMP act inh: 7; Rce1 inh: inactive; UUG fidelity: -8; MT1-MMP act inh RFP: 4

How did CC(NC(=O)c1cccc(S(=O)(=O)N2CCN(C)CC2)c1)c1ccc(Cl)cc1Cl (configuration not stated) do in these assays?
HIV Env fusion: 5; CSC inhib: -6; MT1-MMP act inh: 1; Rce1 inh: inactive; UUG fidelity: -4; MT1-MMP act inh RFP: -9

Next part, starting with the last 2 of the part before.
Results for CCOc1ccccc1NC(=O)c1oc2ccccc2c1NC(=O)C1CC1 ?
eIF4H inh: 4; HIV Env fusion: 2; CSC inhib: -8; PABP polyA inh: -6; MT1-MMP act inh: 7; Rce1 inh: inactive; UUG fidelity: -8; MT1-MMP act inh RFP: 4

How did CC(NC(=O)c1cccc(S(=O)(=O)N2CCN(C)CC2)c1)c1ccc(Cl)cc1Cl (configuration not stated) do in these assays?
HIV Env fusion: 5; CSC inhib: -6; MT1-MMP act inh: 1; Rce1 inh: inactive; UUG fidelity: -4; MT1-MMP act inh RFP: -9

Results for Cc1cc(=O)n(Cc2ccccc2)c(O)c1C#N ?
eIF4H inh: 41; HIV Env fusion: 1; CSC inhib: 5; PABP polyA inh: 24; MT1-MMP act inh: -12; Rce1 inh: inactive; UUG fidelity: -14; MT1-MMP act inh RFP: 1

What do the screens show for `O=C(CSc1nnc(-c2cccnc2)n1Cc1ccco1)c1ccccc1`?
eIF4H inh: -3; HIV Env fusion: 1; CSC inhib: -5; PABP polyA inh: 0; MT1-MMP act inh: 2; Rce1 inh: inactive; MT1-MMP act inh RFP: -1

How did CCOC(=O)C1CCCN(C(=O)CS(=O)(=O)Cc2ccccc2)C1 (configuration not stated) do in these assays?
eIF4H inh: -3; HIV Env fusion: -60; CSC inhib: -4; PABP polyA inh: -8; MT1-MMP act inh: 0; Rce1 inh: inactive; UUG fidelity: -14; MT1-MMP act inh RFP: 3

Results for CC(=O)c1sc(NC(=O)c2ccccc2C)nc1C ?
eIF4H inh: -2; HIV Env fusion: -21; CSC inhib: -1; PABP polyA inh: -20; MT1-MMP act inh: -2; Rce1 inh: inactive; UUG fidelity: -4; MT1-MMP act inh RFP: -4

What do the screens show for `CC(C)(Oc1ccc(Cl)cc1)C(=O)NCc1ccc(S(N)(=O)=O)cc1`?
eIF4H inh: 66*; HIV Env fusion: -5; CSC inhib: -10; PABP polyA inh: -8; MT1-MMP act inh: -2; Rce1 inh: inactive; eIF4H inh retest: 59*; PABP polyA inh retest: 30; MT1-MMP act inh RFP: -3

Results for COCCCNC(=S)N1CCC(C(=O)c2ccc(Cl)cc2)CC1 ?
eIF4H inh: 0; HIV Env fusion: -4; CSC inhib: -10; PABP polyA inh: 4; MT1-MMP act inh: 12; Rce1 inh: inactive; UUG fidelity: -9; MT1-MMP act inh RFP: -18

How did Cc1c(C)c2ccc(OCC(=O)N[C@@H](Cc3c[nH]c4ccccc34)C(=O)O)cc2oc1=O do in these assays?
eIF4H inh: 12; CSC inhib: -3; PABP polyA inh: 12; MT1-MMP act inh: 1; Rce1 inh: inactive; UUG fidelity: 7; MT1-MMP act inh RFP: 4

How did CCn1c(SCc2nc3ccccc3[nH]2)nnc1-c1ccncc1 do in these assays?
eIF4H inh: 10; CSC inhib: -3; PABP polyA inh: 2; MT1-MMP act inh: -10; Rce1 inh: inactive; UUG fidelity: -31; MT1-MMP act inh RFP: 1

How did CC12CCC(C(=Nc3ccc(N=C4C(=O)C5(C)CCC4C5(C)C)cc3)C1=O)C2(C)C do in these assays?
eIF4H inh: 4; CSC inhib: -13; PABP polyA inh: 2; Rce1 inh: inactive

How did OCCN(Cc1ccccc1)Cc1nc(CC2CC2)no1 do in these assays?
eIF4H inh: -8; HIV Env fusion: 19; CSC inhib: -6; PABP polyA inh: 0; MT1-MMP act inh: -1; Rce1 inh: inactive; UUG fidelity: -45; MT1-MMP act inh RFP: 1

Results for CCCc1nc2ccc(C(=O)OC)cn2c1Cc1cccc(F)c1 ?
HIV Env fusion: -4; MT1-MMP act inh: -1; UUG fidelity: 38; MT1-MMP act inh RFP: -3

Results for CCO[C@H]1OC(C(N)=O)=C[C@@H](C)[C@@H]1CCCO ?
eIF4H inh: -7; HIV Env fusion: -5; CSC inhib: -11; PABP polyA inh: -6; MT1-MMP act inh: 1; Rce1 inh: inactive; UUG fidelity: -6; MT1-MMP act inh RFP: 7

How did O=C(c1ccc(CS(=O)Cc2ccccc2Cl)o1)N1CCN(c2ccccn2)CC1 (configuration not stated) do in these assays?
eIF4H inh: -6; HIV Env fusion: 1; CSC inhib: -3; PABP polyA inh: 1; MT1-MMP act inh: 2; Rce1 inh: inactive; UUG fidelity: -10; MT1-MMP act inh RFP: -1

Results for COc1ccc(COC(=O)c2ccc(C)c(S(=O)(=O)N3CCOCC3)c2)cc1F ?
HIV Env fusion: -17; CSC inhib: -6; MT1-MMP act inh: -2; Rce1 inh: inactive; MT1-MMP act inh RFP: -5

What do the screens show for `O=C(CCc1nnc(Cc2cccc(C(F)(F)F)c2)o1)NCC(F)(F)F`?
eIF4H inh: -2; HIV Env fusion: 31; CSC inhib: -5; PABP polyA inh: -11; MT1-MMP act inh: 2; Rce1 inh: inactive; MT1-MMP act inh RFP: 6

Results for COc1ccc(CC(=O)Nc2ccc(F)c(S(=O)(=O)N3CCOCC3)c2)cc1 ?
HIV Env fusion: -14; MT1-MMP act inh: 9; UUG fidelity: 1; MT1-MMP act inh RFP: -1

Results for Cc1nc(SCC(=O)c2cccs2)c2oc3ccccc3c2n1 ?
eIF4H inh: -12; HIV Env fusion: -74; CSC inhib: 16; PABP polyA inh: 5; MT1-MMP act inh: -6; Rce1 inh: inactive; UUG fidelity: -15; MT1-MMP act inh RFP: -8

Pulled by structure from the entries so far (three):
How did CCOC(=O)C1CCCN(C(=O)CS(=O)(=O)Cc2ccccc2)C1 (configuration not stated) do in these assays?
eIF4H inh: -3; HIV Env fusion: -60; CSC inhib: -4; PABP polyA inh: -8; MT1-MMP act inh: 0; Rce1 inh: inactive; UUG fidelity: -14; MT1-MMP act inh RFP: 3

Results for COCCCNC(=S)N1CCC(C(=O)c2ccc(Cl)cc2)CC1 ?
eIF4H inh: 0; HIV Env fusion: -4; CSC inhib: -10; PABP polyA inh: 4; MT1-MMP act inh: 12; Rce1 inh: inactive; UUG fidelity: -9; MT1-MMP act inh RFP: -18

Results for Cc1cc(=O)n(Cc2ccccc2)c(O)c1C#N ?
eIF4H inh: 41; HIV Env fusion: 1; CSC inhib: 5; PABP polyA inh: 24; MT1-MMP act inh: -12; Rce1 inh: inactive; UUG fidelity: -14; MT1-MMP act inh RFP: 1
